# Screens deposited in PubChem by Fisher Drug Discovery Resource Center.
# NPYLR7 ag: agonists of mosquito NPYLR7 receptor, primary screen, cell-based, Aedes aegypti, calcium fluorescence, mosquito biting behavior; Aedes aegypti neuropeptide Y-like receptor 7 (NPYLR7); HEK293T NPYLR7/Galpha15, GCaMP6s calcium fluorescence; activation, % at 10 µM; hit rate 0.15% among 270,000; AID 1259423, 2018; in the data active = activation above about 40%;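 note: 0% = vehicle and 100% = reference agonist at the receptor; some compounds past the cut are filed as inactive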
# NPYLR7 ag max-min: also measured in NPYLR7 ag; calls as there; activation, %; measured here: Max-Min RFU normalised activation; some inactives read as strong as hits;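 span of the calcium signal over five minutes; 0% = vehicle and 100% = native peptide agonist; compound fluorescence can raise it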
# An asterisk follows results filed as active; & = joins results of further samples. The list is partial, so the mix of outcomes need not match the whole.
# Values in the order – NPYLR7 ag | NPYLR7 ag max-min
CNC(=O)Cn1c(CO)cnc1SCc1cccc(F)c1
 : 8.2 | 6.3
CC(C)C(C(=O)O)N1C(=O)/C(=C/c2ccc(Cl)cc2Cl)SC1=S (stereo not drawn)
 : 5.4 | 3.1
CC(=O)NCCn1c(C)csc1=Nc1ccc2c(c1)CCC2
 : 7.6 | 6.3
CCC(C(=O)N1CCN(c2nc(C(C)C)nc3sc4c(c23)CCCCC4)CC1)c1ccccc1 (stereo not drawn)
 : -1.9 | 7.2
COc1cccc(CN2CCCC(CNC(=O)c3ccc(F)cc3)C2)c1OC (stereo not drawn)
 : -3.8 | -4.6
CC(C)CNc1cc(C(C)C)c(C#N)c2nc3ccccc3n12
 : -1.3 | -4.5
CN(C)CC1(O)CCCN(c2noc(-c3ccccc3)n2)CC1 (stereo not drawn)
 : 15.3 | 14.6
C=CCN(Cc1ccccc1C)C(=O)C(C)N1CCN(C)CC1 (stereo not drawn)
 : -1.3 | -5.4
COc1cn(CC(=O)NC2CCCC2)c(CSc2nc(C)cs2)cc1=O
 : -6.2 | -9.7
COc1cccc2c1OCC(CN1CCCC1c1c(C)noc1C)=C2 (stereo not drawn)
 : 5.4 | 5.0
c1ccc(Oc2ccc(-c3nc(N4CCN(C5CCCCC5)CC4)c4ccccc4n3)cc2)cc1
 : 0.8 | 11.7
Cc1cccc(NC(=O)CCC2CCN(C(=O)CSc3ccccn3)CC2)c1
 : -4.5 | -5.6
CC(C)C(=O)NCCS(=O)(=O)c1ccc(C(C)(C)C)cc1
 : -3.2 | -6.3
CNC(=O)c1ccc(Sc2ccc(NC(C)=O)cc2)nc1
 : 2.5 | -0.1
COCCNC(=O)Cc1csc(Nc2ccc(OC(F)(F)F)cc2)n1
 : -1.7 | -2.5
COc1ccc(CCNC(=O)N2CCC3(CC2)CN(C)CCN3C)cc1
 : 8.5 | 5.9
CCn1ncnc1CN1CCN(C)C2(CCN(C(=O)c3ccco3)CC2)C1
 : 3.0 | 5.1
Cc1nn(C)c(C)c1C(C)C(=O)NC(C#N)c1cccc(Cl)c1 (stereo not drawn)
 : 3.2 | 0.8
CC(C)n1cnc2c(nnn2C)c1=O
 : 1.3 | 15.3
COc1cc(OC)c(NC(=O)Cn2ncn3nc(-c4ccccc4)cc3c2=O)cc1Cl
 : -7.3 | -16.4
Cc1nc(NC(=O)c2ccc(-n3cnnc3)cc2)ccc1Br
 : -1.8 | -4.2
O=S(=O)(c1ccc(OCCn2cnnn2)cc1)N1CCOCC1
 : 0.6 | 3.4
Cc1ccc(NC(=O)CN2CCCN(c3ccc(C(F)(F)F)cn3)CC2)cc1
 : 11.0 | 15.1
Cc1cccc(NC(=O)Cn2nc(C(C)C)c3cnn(-c4ccccc4C)c3c2=O)c1
 : 8.0 | 6.3
CC(NC(=O)C(C)(C)c1ccc(Cl)cc1)c1ncn[nH]1 (stereo not drawn)
 : 1.6 | -0.5
COc1ccc2c(=O)cc[nH]c2c1
 : -1.4 | -1.3
Cc1ccc(NC(=O)CN(C)C(=O)CCc2nc3ccccc3[nH]2)cc1
 : 3.7 | 0.9
CCOC(=O)[C@@H]1C[C@@H]2O[C@H]1[C@H]1CN(C(=O)c3cc(C)oc3C)C[C@H]1[C@@H]2O
 : 8.3 | 17.1
C=CCn1c(=NC(=O)CN2C(=O)c3ccccc3C2=O)sc2ccccc21
 : 4.6 | -2.0
Nc1cc(C(F)(F)F)ccc1S(=O)(=O)O
 : 1.5 | 1.7

# Among those listed so far, two have a cyano group.
# Values in the order – NPYLR7 ag | NPYLR7 ag max-min
CC(C)CNc1cc(C(C)C)c(C#N)c2nc3ccccc3n12
 : -1.3 | -4.5
Cc1nn(C)c(C)c1C(C)C(=O)NC(C#N)c1cccc(Cl)c1 (stereo not drawn)
 : 3.2 | 0.8

# Next records follow:
# Values in the order – NPYLR7 ag | NPYLR7 ag max-min
CC(=O)NC1CCCN(c2cc(C#N)c3ccccc3n2)C1 (stereo not drawn)
 : 8.5 | 4.2
COCCN(CC(=O)N(CCc1c[nH]c2ccccc12)Cc1ccc(N(C)C)cc1)C(=O)c1cccc(OC)c1
 : 19.8 | 26.5
CC(c1ccccc1)N1C(=O)NC(NC(=O)c2ccc(F)cc2)(C(F)(F)F)C1=O (stereo not drawn)
 : -17.9 | -22.0
CC1ON=C(c2cccc(C(F)(F)F)c2)NC1=O (stereo not drawn)
 : -2.4 | -1.1
Cc1ccc(-c2cc(C(=O)N3C[C@@H]4[C@H](C3)[C@H]3CC[C@@H]4O3)n[nH]2)o1
 : 3.6 | 15.1
COc1c(Br)cc(Cl)cc1NCc1c(C)noc1C
 : -3.7 | -4.7
Cc1ccc(S(=O)(=O)c2nc(S(C)(=O)=O)sc2NC2CCS(=O)(=O)C2)cc1 (stereo not drawn)
 : 3.3 | -0.1
COCCNC(=O)[C@@H](C)N1Cc2ccc(-c3ccc(C#N)cc3)nc2C1=O
 : 2.5 | 0.7
O=C(c1ccc(Cl)s1)N(Cc1cccnc1)c1nc2cc3c(cc2s1)OCO3
 : -19.4 | -15.3
COCCCN(Cc1ccc(C(O)(CC2CCC2)CC2CCC2)o1)Cc1cccs1
 : -4.4 | -2.4
O=C(OCc1cc(=O)n2cc(Br)ccc2n1)c1cc2ccccc2oc1=O
 : 0.5 | 7.1
CC(=O)N(C)Cc1ccccc1NC(=O)c1ccccc1C
 : 1.9 | 2.0
COc1ccc(-c2csc(NC(=O)c3cccc4ccccc34)n2)cc1
 : -9.3 | -9.3
CN(C)C=Nc1sc2c(c1C#N)CCCC2
 : -0.8 | 1.1
Cc1cc2nc(Sc3ccccc3)c3ccccc3n2n1
 : 2.3 | 15.0
Cc1ccc2nc(SCC(=O)NCCc3ccccc3)nc(=O)n2c1
 : 3.6 | 2.2
Cc1ccc(NC(=O)C2(C)CCN2C(=O)c2cccc(F)c2)cc1 (stereo not drawn)
 : -1.4 | -3.2
CCc1nc(CN2CCC(CNC(=O)C3CCCCC3)C2)c(C)[nH]1 (stereo not drawn)
 : 19.8 | 5.8
CN(Cc1cccc(C(=O)Nc2c(F)cccc2F)c1)Cc1cnn(C)c1
 : 20.4 | 7.8
COCc1noc(-c2ccc(-c3cc(C)cc(C)c3)nc2)n1
 : -1.0 | -10.1
C#C[C@]1(O)CCC2C3CCC4=Cc5oncc5C[C@]4(C)C3CC[C@@]21C (stereo partly drawn)
 : -4.9 | -12.5
N#CC(C(=O)OC1CCCCC1)c1nc2ccccc2nc1N1CCCCC1 (stereo not drawn)
 : 1.6 | -9.7
OC(c1ccccc1)C1CCN(c2nc(CN3CCOCC3)nc3sc4c(c23)CCCC4)CC1 (stereo not drawn)
 : 2.4 | 20.7
O=C1NNN(c2ccccc2)C1=CN1CCN(c2ccccc2O)CC1
 : 7.2 | 5.5
O=C(CSc1ncnc2c1oc1ccccc12)Nc1cccc(F)c1
 : 4.9 | 2.9
Cc1cc(S(=O)(=O)N2CCOC23CCNCC3)ccc1F
 : -2.6 | 1.0
CC(=O)N1c2ccccc2-[n+]2ccsc2CC1C (stereo not drawn)
 : 0.6 | -4.5
C=CCn1c(NCC)nc2c1c(=O)[nH]c(=O)n2C
 : 1.6 | -3.2
CC(C)(C)n1nc2c(c1NC(=O)CSCc1ccccc1)CSC2
 : -4.5 | -7.0
Cc1n[nH]c(C)c1C(C)N(C)C(=O)c1cn(Cc2ccccc2F)nn1 (stereo not drawn)
 : -8.7 | -10.4
O=C(NCC1CCCO1)c1cccnc1N1CCN(C(=O)c2ccco2)CC1 (stereo not drawn)
 : -3.4 | 2.9
CC(=O)CC1(O)C(=O)N(CCOc2ccccc2C)c2c(C)cc(C)cc21 (stereo not drawn)
 : 6.1 | 2.5
O=C(C1CCN(c2ncc(C(F)(F)F)cc2Cl)CC1)N1CCC2(CC1)OCCO2
 : -6.2 | -11.4
COc1cccc(C(=O)Nc2nn(C)c3c2C(c2ccccc2)CC(=O)N3)c1 (stereo not drawn)
 : -13.1 | -13.5
CC(C)(C)C(NC(=O)Nc1cccnc1)c1cccs1 (stereo not drawn)
 : -3.1 | -4.9
CNC(=O)[C@@H]1C[C@@H](N)CN1C(=O)c1ccc(OC)c(COC)c1
 : 0.6 | -5.3
COc1ccc(OCc2nnc(SCC(=O)c3ccc4c(c3)NC(=O)CO4)n2C)cc1
 : -2.4 | -3.7
CCC(C(=O)Nc1c2c(nn1CC(=O)NCc1ccccc1)CSC2)c1ccccc1 (stereo not drawn)
 : -8.5 | -4.5
CNc1ncc(CN(C)C(=O)c2cccc(C#CC(C)(C)O)c2)cn1
 : -2.4 | -4.4
CCOCCCn1c(SCc2cc(F)ccc2Br)nc2cc(C(=O)OCC)ccc21
 : -5.3 | -9.9

# Rewritten with each value named: entries from further up.
CNC(=O)[C@@H]1C[C@@H](N)CN1C(=O)c1ccc(OC)c(COC)c1
  NPYLR7 ag: 0.6 | NPYLR7 ag max-min: -5.3
COc1ccc(OCc2nnc(SCC(=O)c3ccc4c(c3)NC(=O)CO4)n2C)cc1
  NPYLR7 ag: -2.4 | NPYLR7 ag max-min: -3.7
CCC(C(=O)Nc1c2c(nn1CC(=O)NCc1ccccc1)CSC2)c1ccccc1 (stereo not drawn)
  NPYLR7 ag: -8.5 | NPYLR7 ag max-min: -4.5

# New compounds follow:
# Values in the order – NPYLR7 ag | NPYLR7 ag max-min
N#Cc1cn(C2CC2)c(=O)n(Cc2coc(-c3cccc(Cl)c3)n2)c1=O
 : -0.1 | -2.8
CCc1nc(CN2CC(C)Oc3cc(C)c(Br)cc32)no1 (stereo not drawn)
 : 1.5 | -0.5
Cc1cc(C)n(CC(C)Nc2nc3nonc3nc2N2CCSCC2)n1 (stereo not drawn)
 : 9.0 | 2.6
Cc1cc2nc(C)c(CCC(=O)NC3CCCc4occc43)c(C)n2n1 (stereo not drawn)
 : 0.8 | -0.4
CCCCCCCCc1ccc(-c2ccc(C3=N/C(=C\C(Cl)=C\c4ccccc4)C(=O)O3)cc2)cc1
 : -2.6 | -6.5
O=C(NCc1nc2ccccc2[nH]1)C1CCCN(c2ccc(-n3ccnc3)nn2)C1 (stereo not drawn)
 : -2.4 | -5.7
CCCC(=O)OCC(O)CN(Cc1ccco1)Cc1ccc(F)cc1F (stereo not drawn)
 : -2.7 | 10.3
CCC(CC)NC(=O)c1ccc(N2CCCCC2)c([N+](=O)[O-])c1
 : -5.7 | -8.9
Cc1ccc(C)c(N(C)S(=O)(=O)c2cccc(C(=O)O)c2)c1
 : -6.9 | -7.1
COc1ccc(OC)c(C(C2Sc3nc(C)nn3C2=O)N2CCN(CCO)CC2)c1 (stereo not drawn)
 : 10.8 | 9.7
Cc1cnc(N2CCc3sccc3C2)nc1-c1cnn(C)c1
 : -6.2 | -10.0
Cc1noc(C)c1CCc1nn2c(CC(C)C)nnc2s1
 : 4.6 | -1.8
Cc1ccccc1Cn1c(=O)c(C(=O)NCc2cccnc2)nn(-c2ccc(C(C)C)cc2)c1=O
 : 0.1 | 7.0
C=CCOc1ccc(/C=C2\C(=O)N(c3ccc(S(N)(=O)=O)cc3)N=C2C)cc1OC
 : -6.4 | -11.3
CS(=O)(=O)c1cccc(S(=O)(=O)NC(=O)/C=C/c2cccs2)c1
 : -1.6 | 8.4
O=C(Cn1nnnc1CN1CCc2ccccc2C1)N1CCCC1c1nccs1 (stereo not drawn)
 : -1.1 | -3.1
CCCN(Cc1cc(NC(=O)c2ccccc2Cl)ccc1N(C)C)C(=O)c1cccc(C)c1
 : 0.6 | 0.9
COc1ccc(CCNC(=O)c2nnn(CC(=O)Nc3cccc(C)c3C)c2N)cc1OC
 : 13.8 | 17.9
Fc1ccccc1Cn1c(CSC2=NCCN2)nc2ccccc21
 : 1.0 | 1.6
CCN(CC)S(=O)(=O)c1ccc(=O)n(Cc2ccccn2)c1
 : 7.7 | 2.2
COCc1cc(Cn2cc(-c3ccnc4ccccc34)nn2)[nH]n1
 : 4.0 | 3.1
COCCNC(=O)CN1CN(c2ccccc2)C2(CCN(C(=O)Nc3ccc(OC)cc3)CC2)C1=O
 : -3.7 | 7.0
Cc1cccc(C)c1-n1nnnc1C(c1ccc(Cl)cc1Cl)N(C)C=O (stereo not drawn)
 : -4.7 | -5.3
O=C(N/N=C\c1ccc(OCc2ccccc2)cc1)c1ccc[n+](Cc2ccccc2)c1
 : -0.9 | -7.0
O=C(c1cncn1-c1ccc(F)cc1)N1CCN(S(=O)(=O)c2ccc(F)c(Cl)c2)CC1
 : 0.2 | -2.4
Cc1cc(C(=O)NCc2ccccc2-n2ccnc2C)nc(C)n1
 : -3.6 | -5.0
CCc1ccc(-c2ccc(SCC(=O)Nc3ccc(C(C)=O)cc3)nn2)cc1
 : 0.8 | 0.6
CC(C)CN(CC(=O)N(CCc1ccccc1)Cc1ccco1)C(=O)COc1ccc(Cl)cc1
 : 0.7 | 6.8
CCN(CC)CCCNC(=O)c1cc(N2CCOCC2)nc2ccccc12
 : 28.8 | 19.3
Cc1noc(C)c1CC(=O)NCCN1Cc2ccccc2OC(c2ccsc2)C1 (stereo not drawn)
 : -1.3 | -11.0
N#Cc1ccccc1N1CCC(NC(=O)C2CC2c2ccccc2)CC1 (stereo not drawn)
 : -5.5 | -7.3
COc1ccc2oc(=N)c(C(=O)Nc3ccc(C)cc3)cc2c1
 : -10.2 | -12.4
CCc1ccc2oc(Br)c(CC(=O)O)c2c1
 : -7.4 | -12.4
C=CCn1c(CN2CCC3(CCOCC3)CC2)nc2ccccc21
 : 2.5 | 1.2
OCC#CCSc1cccc2cccnc12
 : -0.9 | 4.9
CC(C)(C(=O)NCc1ccn[nH]1)c1cccc(Br)c1
 : 4.7&10.1 | 0.5&8.7
FC(F)(F)c1ccc2n[nH]c(=S)n2c1
 : 3.8 | 2.8
O=c1ccc(-c2ccco2)nn1CCCNS(=O)(=O)c1cccs1
 : -5.0 | -7.1
CC(C)Oc1ccc(S(=O)(=O)N2CCCCC2)cc1NC(=O)CCl
 : -10.7 | -13.6
O=C1CCC2(CCN1)CCN(C(=O)Cc1cn3ccsc3n1)CC2
 : 1.1 | -3.9
COc1ccc(S(=O)(=O)N(Cc2ccco2)Cc2nccn2Cc2cc(C)ccc2C)cc1
 : 19.6 | 22.1
CCn1c(C)cc(O)c(C(c2ccccc2Cl)N2CCN(C)CC2)c1=O (stereo not drawn)
 : 0.8 | -2.2
